Assay outcomes as filed in PubChem BioAssay.
CtBP-E1A inh – qHTS Assay for Inhibitors of the CtBP/E1A Interaction; AlphaScreen GST-E1A/His-CtBP binding, 1536-well; hits give low values; control for the full effect not named in the record; activity change, % (no concentration beside the values); 0.49% of 340,000 active; CtBP / adenovirus E1A interaction (AlphaScreen); in the data active means activity change below about -65%; inconclusive means about -30% to -65%; inactive means above about -30%; also: % is scaled to controls: 0 for no effect and ±100 for the full control effect; compound concentration not given in the record
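In 5 uL wells, 23 nL compound meets equimolar GST-E1A and His-CtBP (5X stock 125 nM each) for 2 h, 37 °C. Beads (5X, 50 ug/mL) then 1 h, 37 °C, dark.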
Six1-Eya2 inh – qHTS Assay for Inhibitors of the Six1/Eya2 Interaction; Homeobox protein SIX1 (Homo sapiens) + Protein phosphatase EYA2 (Homo sapiens), …; AlphaScreen GST-Six1/His-Eya2 binding, biochemical; hits give low values; control for the full effect not named in the record; activity change, % (concentration not given with the values); 0.56% of 360,000 active; AID 651725, 2012; in the data active = activity change below about -65%; inconclusive = about -30% to -65%; inactive = above about -30%; also: % is scaled to controls: 0 for no effect and ±100 for the full control effect
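AlphaScreen with GST-Six1 and His-Eya2 (5X mix: 250 nM and 500 nM), glutathione donor and nickel acceptor beads; buffer 50 mM Tris pH 8.0, 300 mM NaCl, 1 mM TCEP; 1 h at 37 C in the dark.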
PINK1 expr mod – A Quantitative High throughput Screen to Identify Chemical Modulators of PINK1 Expression. PINK1 immunofluorescence, high-content cytometry, 24 h. Potency, µM (titrated, usually from 76.6 µM), inactives show at the highest dose activation (PINK1 increase), usual class: activators. 0.2% of 410,000 active. AID 624263, 2012; active = well fitted activation curve with a large enough effect; inconclusive = small, poorly fitted or top-dose-only effect; inactive = flat fitted curve, though single readings scatter; cell line not stated here;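 also: potency is read from the fitted curve at half-maximal effect; % of control where 0% means no effect; nearly all actives have a fitted effect of over 65% in size; a mitochondrial uncoupler was the plate control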
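PINK1 protein, normally rapidly degraded, was detected by immunofluorescence after 24 hour compound treatment of a stable cell line. Titration data (5 concentrations) came from laser-scanning cytometry, with CCCP-treated wells as controls.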
TRPML1 agonist – qHTS for Agonists of the Human Mucolipin Transient Receptor Potential 1 (TRPML1). activation, % (no concentration beside the values). Mucolipin-1 (Homo sapiens), Q9GZU1. 0.12% of 410,000 active. TRPML1-expressing cells, Ca2+ dye fluorescence, FDSS; host cell line not named in the record; reference of the full effect not given here; in the data active = activation above about 50%; inconclusive = about 30% to 50%; inactive = below about 30%; also: 0% is about no effect; the text of the record puts the active cut at 80%
Target sequence (Q9GZU1 whole entry, looked up): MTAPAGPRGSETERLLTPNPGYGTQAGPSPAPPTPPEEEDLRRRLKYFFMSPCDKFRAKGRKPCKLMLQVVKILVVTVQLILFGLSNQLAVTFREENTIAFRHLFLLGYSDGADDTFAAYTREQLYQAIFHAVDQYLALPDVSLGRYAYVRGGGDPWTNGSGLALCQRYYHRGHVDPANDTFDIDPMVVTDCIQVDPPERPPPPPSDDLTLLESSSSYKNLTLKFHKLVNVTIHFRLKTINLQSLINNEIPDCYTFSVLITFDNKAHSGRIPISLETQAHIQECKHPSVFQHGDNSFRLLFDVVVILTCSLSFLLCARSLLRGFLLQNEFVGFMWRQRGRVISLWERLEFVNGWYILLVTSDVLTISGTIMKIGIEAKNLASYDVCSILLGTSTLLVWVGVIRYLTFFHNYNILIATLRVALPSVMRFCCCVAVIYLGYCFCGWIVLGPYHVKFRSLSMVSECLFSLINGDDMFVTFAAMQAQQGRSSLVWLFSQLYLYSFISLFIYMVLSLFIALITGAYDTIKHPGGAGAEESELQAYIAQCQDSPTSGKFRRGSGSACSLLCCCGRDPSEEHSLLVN
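Tet-induced TRPML1-DL cells, 1,500 per well, cultured overnight, were loaded with a no-wash Ca2+ dye for 45–90 min. Calcium fluorescence was recorded on the FDSS for 110 s after compound addition, before the EC80 agonist (4 uM 54-4) was added.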
TRPML1 inh – qHTS for Inhibitors of the Human Mucolipin Transient Receptor Potential 1 (TRPML1). Mucolipin-1 (Homo sapiens), Q9GZU1. TRPML1-inducible cells, Ca2+ dye fluorescence, FDSS; hits give low values; inhibition of EC80 agonist-evoked calcium signal. activity change, negative = inhibition, % (test concentration not listed). 0.02% of 390,000 active; in the data active means activity change below about -50%; inconclusive means about -30% to -50%; inactive means above about -30%;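 also: stimulus is agonist 54-4 at its EC80 concentration; % is scaled to controls: 0 for no effect and ±100 for the full control effect; compound concentration not given in the record; the text of the record puts the active cut at -80%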
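Tet-induced TRPML1-DL cells loaded with Ca8 no-wash calcium dye were read kinetically on FDSS. Compound addition was followed by EC80 agonist 54-4 (4 uM final); inhibition was read over 110 s.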
D2 agonist – Beta-Arrestin HTS for Positive Allosteric Modulators of the Human D2 Dopamine Receptor: Agonists | D(2) dopamine receptor (Homo sapiens), P14416 | DiscoveRx PathHunter D2 beta-arrestin, luminescence, 90 min; 100% = 57 uM dopamine signal | activation, % (concentration not given with the values) | 0.084% of 360,000 active; in the data active = activation above about 40%; inconclusive = about 15% to 40%; inactive = below about 15%; also: compound concentration not given in the record; the text of the record calls up to 30% inactive
Target sequence (P14416 whole entry, looked up): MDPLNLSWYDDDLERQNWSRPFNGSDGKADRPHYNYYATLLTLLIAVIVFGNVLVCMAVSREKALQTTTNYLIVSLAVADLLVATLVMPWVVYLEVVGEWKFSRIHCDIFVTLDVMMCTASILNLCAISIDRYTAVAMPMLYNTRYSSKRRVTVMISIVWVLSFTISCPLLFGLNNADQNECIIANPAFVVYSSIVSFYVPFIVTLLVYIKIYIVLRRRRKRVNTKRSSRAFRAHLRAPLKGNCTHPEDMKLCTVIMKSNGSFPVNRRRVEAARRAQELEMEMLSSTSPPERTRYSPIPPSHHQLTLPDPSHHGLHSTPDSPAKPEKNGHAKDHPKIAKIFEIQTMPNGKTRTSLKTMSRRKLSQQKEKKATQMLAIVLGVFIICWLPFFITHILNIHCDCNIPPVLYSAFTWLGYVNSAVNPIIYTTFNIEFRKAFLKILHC
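DiscoveRx PathHunter D2 beta-arrestin cells (2,100/well) attached overnight, then compound-stimulated 90 min at 37 C in HBSS/10 mM HEPES/0.1% Tween-20 buffer; beta-galactosidase complementation read by luminescence after 1 h at ambient temperature. Dopamine 57 uM final (EC100) as control.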
Numbers without * were called inactive; ? = inconclusive; . = no result given; & = joins results of further samples; [ ] = remark or other dose.

Values run as follows: CtBP-E1A inh | Six1-Eya2 inh | PINK1 expr mod | TRPML1 agonist | TRPML1 inh | D2 agonist
- COc1cc(OC)c(-c2c3cc(O)c(=O)cc-3oc3cc(O)c(O)cc23)cc1OC
→ 0 | ? | 7.0% | 112* | -10 | -14
- Cc1csc(SCC(=O)NCCc2ccc(Cl)cc2Cl)n1
→ -14 | 9 | -1.7% | 1.6 | -29 | -1.1
- Cc1nc(S(=O)(=O)c2ccc(Cl)cc2)c(N(C)C)o1
→ . | 11 | -0.2% | 0.7 | -15 | -4.4
- CCS(=O)(=O)NCCc1csc(-c2ccccc2)n1
→ 12 | 4 | -0.3% | 0.4 | -11 | -4.8
- Cc1ccc(OCc2nnc(SCc3nc4ccccc4[nH]3)n2Cc2ccco2)cc1
→ 7 | -13 | -1.8% | 1.3 | 27 | -0.9
- Cc1ccc(N2OC3C(=O)NC(=O)C3C2c2ccco2)cc1 (centres undefined)
→ 0 | -2 | 2.3% | -0.4 | -10 | -1.8
- Cc1cc(SCC(=O)c2cc3ccccc3o2)nc2ccccc12
→ 2 | 7 | 2.1%[38.3 µM] | -0.3 | 6 | 0.4
- C=CCNc1ccc(F)c(F)c1N1CCCCCC1=O
→ 0 | 5 | 1.3% | 0.6 | 32 | -0.8
- COc1ccc(OC)c(C(=O)CN2CCN(S(=O)(=O)c3ccc(Br)cc3)CC2)c1
→ 3 | 0 | -1.0% | 0.7 | -17 | -3.3
- O=C(O)Cc1ccc(NC(=O)c2cnccn2)cc1
→ 3 | 6 | -2.0% | 1.1 | 5 | 10
- Cc1cc(SCC(=O)Nc2cccc(S(=O)(=O)N3CCOCC3)c2)nc2ccccc12
→ . | -10 | 1.3% | 1.7 | -3 | -2.8
- CCCCCCc1ccc(N2C[C@H](Cc3ccccc3)[C@@H](CC(=O)Nc3ccccc3)C2=O)cc1
→ -11 | 0 | 5.8% | 1.7&2.7 | -6 | 1.1
- Cc1c(CNC2CCC(C)CC2)c(C(=O)O)c(C)n1Cc1ccccc1 (centres undefined)
→ -6 | 2 | 3.5% | 1.2 | 26 | -0.3
- OCCCn1c(C2CCCN2c2nc(-c3ccc(Cl)cc3)cs2)nc2cc(C(F)(F)F)ccc21 (centres undefined)
→ -2 | -11 | 2.8% | -0.7 | 2 | -2.1
- CC1C(=O)N(Cc2cn(CCC3OCCO3)nn2)CCS(=O)(=O)N1Cc1ccc(-c2cccc(N(C)C)c2)cc1 (centres undefined)
→ -8 | ? | 0.9% | 2.6 | -3 | -1.6
- CCOc1ccc(S(=O)(=O)N(CC)CC)cc1NS(=O)(=O)c1ccc(F)c(F)c1F
→ -1 | 2 | -0.2% | -0.3 | 16 | -4.6
- COc1cc(-c2nnc(COc3ccc(Cl)cc3C)o2)cc(OC)c1OC
→ 1 | -3 | 4.1% | 1.1 | 7 | -4.1
- CN(CC(=O)N1CCc2ccccc21)S(=O)(=O)c1cccs1
→ 7 | 2 | -1.5% | 0.8 | -11 | -1.1
- CCCCCC(=O)NNC(=O)c1c(O)c2ccccc2n(CC)c1=O
→ -16 | 12 | 1.1% | ? | -9 | -3.5
- CC(C)c1c(C(=O)N/N=C/c2ccc3c(c2)OCO3)nnn1-c1nonc1N
→ 1 | -1 | 3.4% | 0.5 | -3 | 1.8
- CCN(CC)S(=O)(=O)c1ccc(Cl)c(C(=O)NCCN2CCOCC2)c1
→ . | 6 | 1.4% | 1.9 | 20 | 2.8
- CCN(C(=O)c1cc(Cl)ccc1OC)c1ccccc1
→ 8 | 2 | 20%[38.3 µM] | -0.8 | -3 | 0.0
- Cc1ccc(-c2c(C(=O)O)c(C(=O)O)c3n2CSC3)cc1
→ . | -1 | 1.6% | 0.9 | 28 | -3.7
- Cc1cc(C)nc(N2CCCC(C(=O)NCC(c3ccccc3)c3ccccc3)C2)n1 (centres undefined)
→ 0 | 1 | 1.7% | 1.5 | 1 | -2.8
- NC(=O)NC(CC(=O)N1CCc2ccccc2C1)c1ccc(Cl)cc1 (centres undefined)
→ -5 | -6 | 1.5% | 0.6 | -1 | -3.0
- O=C(CCSc1nnc(-c2ccc(O)cc2)o1)N1CCOCC1
→ 1 | -9 | -0.7% | 1.5 | 15 | 4.0
- O=C1N=c2ccccc2=C1c1sc(=S)n(-c2ccc(O)cc2)c1O
→ 3 | 4 | 9.7% | 1.2 | -11 | ?
- CC1=Nn2c(nnc2-c2ccccc2)SC1
→ -2 | -12 | 3.1% | -0.1 | -8 | 0.1
- N#Cc1ccsc1NC(=O)C1=COCCO1
→ . | -17 | 0.2% | 0.1 | -7 | -0.1
- O=c1c(Cl)c(NCC2CCCO2)cnn1C12CC3CC(CC(C3)C1)C2 (centres undefined)
→ -3 | 3 | 1.7% | 0.1 | 4 | -4.5
- COc1ccc(CNC(=O)CN2C(=O)COc3ccc(S(=O)(=O)NC4CCCC4)cc32)cc1
→ 0 | 2 | 1.7%&1.1% | -0.6&2.6 | -4&4 | -3.7
- S=C(Nc1ccc2nsnc2c1)N1CCCCC1
→ -30 | 90 | -1.5% | 0.3 | 11 | -5.6
- Cc1cc(=S)cc(C)n1CCCn1ccnc1
→ -1 | -2 | -0.3% | -0.9 | -10 | -1.6
- CN(C)c1ccc(C(=O)Nc2sc(Nc3ccccc3)nc2C(N)=O)cc1
→ . | . | 2.8% | -0.3 | 11 | .
- CS(=O)(=O)Nc1ccccc1C(=O)Nc1ccc2c(c1)OCCO2
→ 1 | 0 | 2.3% | -0.2 | -5 | -3.3
- CCOc1ccc(NC(=S)NCCCc2ccccc2)cc1
→ 0 | -16 | 0.1% | 0.9 | 8 | -1.7
- CCn1c(CN2CCC(C)CC2)nc2cc(NC(=O)COc3ccc(Cl)c(C)c3)ccc21
→ . | . | 4.8% | 1.4 | -16 | .
- CN1C(=O)N(C)C2(c3ccccc3)N(C)C(=O)NC12c1ccccc1 (centres undefined)
→ 0 | -7 | -1.1% | -0.7 | -10 | 0.1
- CCOC(=O)c1ccc(NC(=S)Nc2ccc3[nH]c(=O)[nH]c3c2)cc1
→ -1 | 5 | 1.5% | 0.8 | 4 | -1.2
- Cc1cc(-c2ccc(C)c(S(=O)(=O)N3CCN(c4ccc(F)cc4)CC3)c2)on1
→ -1 | -3 | -1.1% | 0.7 | 49 | -1.7
- C=CCn1c(SCC(=O)NCc2ccc3c(c2)OCO3)nnc1C1COc2ccccc2O1 (centres undefined)
→ 2 | -2 | -2.0%[38.3 µM] | -0.1 | 4 | -0.9
- COc1ccc(CCNC(=O)C2CCN(S(=O)(=O)N3CCCCCC3)CC2)cc1OC
→ -1 | -1 | 14%[38.3 µM] | 2.8 | -7 | -1.1
- O=C(Nc1ccccc1)C1C2CCC3C(CCC21)C3(Cl)Cl (centres undefined)
→ 3 | 5 | 1.6% | 0.1 | 30 | 2.3
- Nc1nnnn1CC(=O)N/N=C/c1cc([N+](=O)[O-])ccc1O
→ -81* | -87* | 5.9% | 0.4 | -6 | 1.1
- CCOC(=O)N1CCN(C(=O)c2ccc3c(c2)N(Cc2ccccc2)CCS3)CC1
→ -9 | -2 | 4.3% | 1.0 | 3 | -1.4
- Cc1n[nH]c(=O)nc1NC(C)c1ccccc1 (centres undefined)
→ 10 | 3 | 4.5%[38.3 µM] | 2.4 | 0 | -0.9
- COc1ccccc1N1CCN(c2ccc(=O)n(CC(=O)NCc3ccc(OC(C)C)cc3)n2)CC1
→ . | . | 6.5% | 1.6 | 17 | .
- O=C(Cn1cnc2ccccc2c1=O)NC1CCS(=O)(=O)C1 (centres undefined)
→ 0 | 6 | 3.0% | -0.8 | -2 | 1.9
- CCOc1ccc(CCNC(=O)CCc2nnc3ccc(N4CCOCC4)nn23)cc1OCC
→ 0 | 0 | 1.3% | 1.2 | 1 | 6.4
- CCC1C(=O)NCCN1C(=O)c1ccc(OC)c(OC2CCN(C(C)=O)CC2)c1 (centres undefined)
→ 5 | 5 | -0.8% | -0.2 | -4 | -1.2
- CCN(CC)c1ccc(/C=N/Nc2ccccc2)c(O)c1
→ -21 | -20 | 2.9%[38.3 µM] | 3.3 | 8 | 3.8
- CCOc1ccc(NC(=O)CCNS(=O)(=O)c2ccc3c(c2)CCCC(=O)N3)cc1
→ . | . | 0.0% | 0.8 | -7 | .
- COc1ccc(OCCCC(=O)NCCc2nc3ccccc3[nH]2)cc1
→ 5 | -1 | 1.0% | -0.4 | -12 | -1.0
- O=C(OCC(=O)N1CCc2ccccc21)C1=COCCO1
→ -8 | 3 | 0.0% | 0.0 | -10 | 1.2
- CSCC(O)Cn1ncc2ccccc2c1=O (centres undefined)
→ 5 | -5 | 0.6% | 1.4 | -1 | -1.3
- Oc1ccccc1Nc1ccccn1
→ 6 | 1 | -0.5% | -1.3 | 7 | -1.5
- COc1ccc(C(=O)O)cc1S(=O)(=O)NCc1ccccn1
→ 12 | -3 | 4.5% | -0.4 | 6 | 2.0
- Cc1ccc2nc(SCC(=O)Nc3ccc4c(c3)OCCO4)nc(=O)n2c1
→ -11 | 1 | 0.0% | 0.5 | 13 | -0.9
- NC(=O)CC(NC(=O)c1ccccc1)c1ccc(NC2CCN(Cc3ccccc3)CC2)c([N+](=O)[O-])c1 (centres undefined)
→ -2 | 1 | -0.5% | -0.5 | -6 | -3.9
- CCOC(=O)N1CCN(Cc2cn[nH]c2-c2cccc3ccccc23)CC1
→ . | -1 | -0.3% | -0.2 | 16 | -2.6

Next part.
Values run as follows: CtBP-E1A inh | Six1-Eya2 inh | PINK1 expr mod | TRPML1 agonist | TRPML1 inh | D2 agonist
- CCOc1ccc2ccccc2c1CNCCN1CCOCC1
→ 0 | 0 | 3.0%[38.3 µM] | -0.3 | -3 | -3.7
- Cc1cc(OCCCn2c(CCNC(=O)C3CCCCC3)nc3ccccc32)ccc1Cl
→ . | . | 1.8% | 2.8 | 52 | .
- CCc1ccc(/C=C2\Oc3c(ccc(O)c3CN3CCN(C)CC3)C2=O)cc1
→ -10 | 1 | 0.8% | 6.9 | 9 | -3.5
- CN(c1ccccc1C(=O)NCc1ccccc1Cl)S(=O)(=O)c1ccccc1
→ 3 | -1 | 1.0% | 1.3 | 21 | -3.8
